Screens (PubChem)
NPYLR7 ag: activates Aedes aegypti NPYLR7 receptor | activation, % at 10 µM | HEK293T NPYLR7/Galpha15, GCaMP6s calcium fluorescence | hit rate 0.15% among 270,000 | AID 1259423; in the data active = activation above about 40%;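 note: 0% = vehicle and 100% = reference agonist at the receptor; some compounds past the cut are filed as inactive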
NPYLR7 ag max-min: further read-out of NPYLR7 ag, marked with its call; activation, %; measured here: Max-Min RFU normalised activation; some inactives read as strong as hits;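 span of the calcium signal over five minutes; 0% = vehicle and 100% = native peptide agonist; compound fluorescence can raise it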
Numbers without * were called inactive; & = joins results of further samples. The list is partial (hit frequency here may not be typical).

Start of the listing, in advance:
SMILES | NPYLR7 ag | NPYLR7 ag max-min
O=C(Cn1ccccc1=O)NNS(=O)(=O)c1ccc2ccccc2c1 | -5 | -4
CCc1nc2ccc(C(=O)Nc3cccc(OCC(=O)N(C)C)c3)cn2c1N(CC)CCN(C)C | -5 | -9
CCCCOC(=O)c1ccc(NC(=O)CC2CSc3nc4[nH]ncc4c(=O)n32)cc1 (stereo not drawn) | 2 | 17

This part in full (from the top)
SMILES | NPYLR7 ag | NPYLR7 ag max-min
O=C(Cn1ccccc1=O)NNS(=O)(=O)c1ccc2ccccc2c1 | -5 | -4
CCc1nc2ccc(C(=O)Nc3cccc(OCC(=O)N(C)C)c3)cn2c1N(CC)CCN(C)C | -5 | -9
CCCCOC(=O)c1ccc(NC(=O)CC2CSc3nc4[nH]ncc4c(=O)n32)cc1 (stereo not drawn) | 2 | 17
COc1ccc(C2=CCN(C(=O)C3CSC4(C)CCC(=O)N34)CC2)cc1 (stereo not drawn) | 0 | -1
C/C(=N/N=C1\NC(=O)C(CC(=O)Nc2cccc3ccccc23)S1)C(C)C (stereo not drawn) | 3 | -1
CCc1nc(C)c(C(C)OC(=O)CN2CCCCCCC2=O)s1 (stereo not drawn) | 11 | 6
Cc1ccc(CN2CCN(c3ncc(C)c(N(C)C)n3)CC2=O)cc1 | 2 | -7
N#CC1C(=N)Oc2cc(O)ccc2C1C1CC=CCC1 (stereo not drawn) | 7 | 5
Cc1ccccc1CN(C)Cn1[nH]c(-c2cccs2)nc1=S | -1 | -7
O=C(CSc1nc2c([nH]c3ccccc32)c(=O)n1-c1ccc([N+](=O)[O-])cc1)Nc1nccs1 | 1 | 22
CC1(C)NC(C)(C)/C(=N\O)C(=NO)/C1=N\O | 2 | 1
Cc1cc(C)nc(SCc2ccc(C(=O)N3CCCC3c3ccccn3)o2)n1 (stereo not drawn) | 4 | 0
CC12CN3CC(C)(CN(C1)C3C(O)C(O)C(O)CO)C2 (stereo not drawn) | 6 | 5
CCOc1ccc(C2c3cccn3CCN2C(=O)Nc2cccs2)cc1 (stereo not drawn) | 10 | 7
Cc1nc(CCNC(=O)c2cn(C3CCCCCC3)nn2)nc2c1CCCC2 | 13 | 0
CN(CC(=O)Nc1ccccc1Br)C(=O)CCn1c(=O)oc2ccccc21 | -1 | -2
COc1ccc(C(=O)CCC(=O)N2C[C@H]3C[C@H](O)[C@@H](O)C[C@H]3C2)cc1 | 7 | 5
Cn1ccnc1C(NS(C)(=O)=O)c1ccccc1F (stereo not drawn) | 16 | 12
O=C(N[C@@H]1CCCCC1NC(=O)C1CCCN(S(=O)(=O)c2cccc3ccccc23)C1)c1ccccc1 (stereo partly drawn) | -9 | -8
Cn1cc(S(=O)(=O)Oc2ccc(C(C)(C)C)cc2)c(=O)n(C)c1=O | 0 | 1
Nc1nc(N2CCOCC2)cc(N2CCN(C/C=C/c3ccccc3)CC2)n1 | 2 | 1
C=CCN(C(=O)c1cccc(C(F)(F)F)c1)C(C)C(=O)c1c(C)c(C(=O)OCC)n(C)c1C (stereo not drawn) | -5 | 4
CC1CCCCN1S(=O)(=O)NC1(C)CCS(=O)(=O)C1 (stereo not drawn) | 1 | 1
CN(C)C(=O)Cc1ccccc1NCc1cccc(F)c1F | 0 | -1
COc1ccc2c(c1)CCCN2C(=O)COC(=O)c1cc(=O)c2c(C)nn(C)c2[nH]1 | -2 | -2
CCN(CC)C(=O)C(C)O/N=C\c1ccccc1O (stereo not drawn) | 5 | 14
CN1CCCC2(CC1)CCN(C(=O)c1nc3ccccc3[nH]c1=O)CC2 | 7 | 2
O=C(NCc1ccncc1)C(C1CCCC1)N1CCN(C(=O)Nc2ccccc2)CC1 (stereo not drawn) | -1 | 3
Cc1ccc(Cl)c2sc(Cl)nc12 | 2 | -8
Oc1ccc(CN2CCCn3cccc3C2c2cc(F)c(F)cc2F)cc1 (stereo not drawn) | 0 | 11

Fetched by structure from above:
SMILES | NPYLR7 ag | NPYLR7 ag max-min
CCN(CC)C(=O)C(C)O/N=C\c1ccccc1O (stereo not drawn) | 5 | 14
COc1ccc(C(=O)CCC(=O)N2C[C@H]3C[C@H](O)[C@@H](O)C[C@H]3C2)cc1 | 7 | 5
CN1CCCC2(CC1)CCN(C(=O)c1nc3ccccc3[nH]c1=O)CC2 | 7 | 2
C/C(=N/N=C1\NC(=O)C(CC(=O)Nc2cccc3ccccc23)S1)C(C)C (stereo not drawn) | 3 | -1

Further structures:
SMILES | NPYLR7 ag | NPYLR7 ag max-min
CCNC(=O)c1ccccc1OCc1cccc(Br)c1 | -1 | -2
Cc1nnc(SCc2cc(Cl)c3c(c2)OCCO3)s1 | 1 | 11
COc1cc(OC)cc(C(=O)N2CCN(c3nc4nccc(-c5cccc(C(F)(F)F)c5)n4n3)CC2)c1 | 22 | 17
Cc1cc(C)c(C(=O)N(Cc2ccccc2)C[C@@H]2CCC[C@@H]2O)c(=O)[nH]1 | 5 | 4
CCOc1cc(C=NN2CCN(Cc3ccccc3)CC2)ccc1O | -3 | -9
CC(=O)Nc1ccc(S(=O)(=O)N2CCN(c3nc(C)nc(C)c3Cc3ccccc3Cl)CC2)cc1 | -1 | 6
Cc1[nH]ncc1CNC(=O)Cc1ccccc1Br | -2 | -3
CCN(Cc1cccc(Cl)c1)CC1CCOCC1 | -2 | -4
CC(CNC1CCN(C(=O)c2ccccc2)CC1)N(C)c1ccccc1 (stereo not drawn) | 8 | 24
COc1cc(NC(=O)C2CCCN2C(=O)C23CC4CC(CC(C4)C2)C3)cc(OC)c1 (stereo not drawn) | 2 | 27
CS(=O)(=O)c1ncc(Cl)c(C(=O)C(C#N)c2nc3ccc(Cl)cc3c(=O)[nH]2)n1 (stereo not drawn) | 5 | 51
CCOc1ccsc1C(=O)N1CCc2c(cccc2C(=O)OC)C1 | 6 | 7
Cc1nn(CC(=O)N2CCC(C)CC2)c(C)c1S(=O)(=O)NC(C)(C)C | 7 | 4
Cc1ccnc(SCc2cc(=O)c(OC(=O)c3ccc(OC(C)C)cc3)co2)n1 | -18 | -12
CCN(CC)c1ccc(CN(Cc2ccco2)C(C)=O)c(OS(=O)(=O)CC)c1 | 16 | 8
Cc1cc(NC(=O)N2CCC(CO)CC2)ccc1OCC(F)(F)F | -2 | -3
CN(C)c1ncccc1CNC(=O)C1COc2ccc(Cl)cc2C1 (stereo not drawn) | -1 | -2
CN1CCC(Cc2noc(/C=C/c3ccccc3)n2)CC1 | 3 | -1
CSc1ncccc1C(=O)N(Cc1ccccn1)CC(C)C | 7 | 6
Cn1cc(-c2cc3c(Nc4cccc(F)c4)nccc3n2C)cn1 | 17 | 5
O=C(CCSc1ccc2c(c1)OCCO2)N1CCOC2(CCCC2)C1 | 4 | -5
Cc1noc(C)c1C(=O)N1CCCC(Nc2ccc(C(C)C)cc2)C1 (stereo not drawn) | -5 | -7
CCOC(=O)c1nn(-c2ccccc2)c(=O)cc1OCc1ccc(C)cc1 | 13 | 7
CCCSc1ncc(CN2CCC(N)(C(=O)O)C2)cn1 (stereo not drawn) | 5 | 1
Cc1nc(NCCNC(=O)Nc2ccc(C)c(F)c2)cc(N2CCOCC2)n1 | -2 | -4
CCc1cccc(NC(=O)Cn2nc3c(N4CCN(c5ccccc5)CC4)nccn3c2=O)c1 | -1 | -1
O=C(NCc1ccco1)C(=O)NC1CCCC1 | 2 | 9
Cc1noc(C)c1C1CCCN1C(=O)c1ccc(-c2nnn(C)n2)cc1 (stereo not drawn) | -2 | -2
COCCn1c(C)cc(C(=O)COC(=O)Cn2nc(C)c([N+](=O)[O-])c2C)c1C | 12 | 11
CCN(CC)CCN(c1ccc2c(c1)OCCO2)S(=O)(=O)c1ccc(C)cc1 | -6 | -4
Cc1nc(CC(=O)NC(C)c2cn3ccsc3n2)cs1 (stereo not drawn) | 7 | 0
c1csc(-c2nc3ccccn3c2NC2CCCCC2)c1 | 3 | 10
COc1ccccc1OCC1CN(C(=O)c2c(F)cccc2Cl)CCO1 (stereo not drawn) | 22 | 29
CCN(CC)C(CNc1nnc(-c2ccccc2)nn1)c1ccccc1Cl (stereo not drawn) | 5 | 12
Cc1ccc(C(C2Sc3nc(C)nn3C2=O)N2CCc3ccccc3C2)cc1 (stereo not drawn) | -1 | -3
CCOCCc1nnc(NC(=O)c2ccc3c(c2)OCO3)s1 | 0 | -1
O=S(=O)(Nc1cc(C(F)(F)F)ccc1NC1CCCCC1)c1ccccc1 | -4 | -6
COc1ccc(C)cc1CSc1nncs1 | 9 | 7
Cc1[nH]c2ccccc2c1C1CC(=O)N(c2ccccc2)C1=O (stereo not drawn) | 1 | -2
O=C(Nc1ccc(C(F)(F)F)cc1)N1CCN(CCN2C(=O)CSC2c2ccc(C(F)(F)F)cc2)CC1 (stereo not drawn) | -9 | 5
CC(C)C(C)NC(=O)c1ccc(N2CCCS2(=O)=O)cc1 (stereo not drawn) | 3 | 1
O=C(Cn1ncc(=O)c2ccccc21)N(c1ccc2c(c1)OCO2)C1CCCCC1 | 5 | 5
CN1CCN(S(=O)(=O)c2ccc(Br)s2)CC1 | 2 | 2
CCOC(=O)c1sc(N2C(=O)C(O)=C(C(=O)c3cccs3)C2c2ccccc2)nc1C (stereo not drawn) | 0 | -2
COc1cc(OC)c(Nc2nc3ccc(Cl)cc3n3cnnc23)cc1Cl | 14 | 5

One compound at a time, from the list above. Order of values: NPYLR7 ag, NPYLR7 ag max-min
COc1cc(OC)c(Nc2nc3ccc(Cl)cc3n3cnnc23)cc1Cl in the list: 14, 5
COc1ccc(C)cc1CSc1nncs1 in the list: 9, 7
O=C(Cn1ncc(=O)c2ccccc21)N(c1ccc2c(c1)OCO2)C1CCCCC1 in the list: 5, 5

The listing continues.
SMILES | NPYLR7 ag | NPYLR7 ag max-min
CSc1cccc2sc(NC(=O)c3snnc3C)nc12 | -3 | 4
CC1(C(=O)Nc2cccc(NS(C)(=O)=O)c2)CCN1Cc1ccc(-c2ccccc2)o1 (stereo not drawn) | 8 | 2
CCCc1nc2oc3cc(OC)ccc3c(=O)c2c(=O)n1Cc1ccc(OC)cc1 | 5 | 3
COCCN(Cc1cccc(OC)c1)CC(O)COc1ccc(OC)cc1 (stereo not drawn) | 11 | 10
CCOC(=O)c1cc(-c2cccc(NC(=O)c3ccco3)c2)n(-c2ccccn2)n1 | -9 | -9
CC(=O)N1CCCC1C1CCCN1CC(O)CN1CCC(C)CC1 (stereo not drawn) | 7 | 5
COc1ccc(S(=O)(=O)N2CCSCC2S(C)(=O)=O)cc1Br (stereo not drawn) | -5 | -9
O=c1c2ccccc2oc2nc(-c3ccc(F)cc3)n(-c3ccccc3)c(=O)c12 | 7 | 6
O=C(NC1CCCCC1)C1CC1 | 6 | 3
Cc1cn2c3c(=O)n(C)c(=O)n(C)c3nc2n1-c1ccc(F)cc1 | 2 | 9
CCOc1cc2c(cc1OCC)CN(C(=O)c1cc(F)cc3[nH]cnc13)CC2 | 4 | 2
Cc1cccc(NC(=O)CSc2nc3c(c(=O)n2Cc2ccccc2)SC(C)C3)c1 (stereo not drawn) | -1 | -4
Cc1nc(Cl)cc(N(C)CC2CCC2)n1 | 17 | 9
CCOC(=O)CS(=O)(=O)C(C)CC (stereo not drawn) | 4 | 6
Cc1cnc(CN(C)C(=O)CC(c2ccccc2)c2ccc3c(c2)OCO3)[nH]1 (stereo not drawn) | 0 | -7
CCOC(=O)c1c(NC(=O)C2CC2)sc(C(=O)NC2CCCC2)c1C | 7 | 9
C/C(=N\NC(=O)c1cc(-c2cccc([N+](=O)[O-])c2)n[nH]1)c1cccc(O)c1 | 2 | 10
CCCc1c(C(=O)O)cnn1CCO | 0 | -2
COc1ccc(CN(CCc2c[nH]c3ccccc23)C(=O)CN(C(=O)c2cccc(Br)c2)C2CC2)cc1OC | -7 | 2
Cc1ccc(CN(Cc2ccccc2)C(=O)CN(CC2CCCO2)S(=O)(=O)c2ccc(Br)cc2)o1 (stereo not drawn) | -3 | -2
Cc1nc2sccn2c(=O)c1NC(=O)c1ccccc1Br | 13 | 5
CN1CCNC(=O)C12CCN(C(=O)c1ccc(-n3cnnn3)cc1)CC2 | 3 | 2
Brc1ccc(-c2cn3c(n2)SCC3)cc1 | -3&1 | -5&-2
O=C(Cc1ccc(Cl)cc1)N1CCC(n2c(Cc3ccccc3)nc3ccccc32)CC1 | -6 | -10
COCCn1c(C)cc(C(=O)COC(=O)c2ccc(Br)o2)c1C | -1 | -3
c1ccc(NN=C2CCCCCCC2)nc1 | 0 | -1
C=CCOC(=O)C1=C(C)NC2=C(C(=O)CCC2)C1c1ccc(OCCC)c(OC)c1 (stereo not drawn) | 6 | 7
COc1cccc(OC)c1C(=O)N1CCN(C(c2ccccc2)c2ccc(Cl)cc2)CC1 (stereo not drawn) | 23 | 15
CC(C)(C)C(=O)N1CCOc2ccc(Nc3ccc(C#N)cn3)cc21 | -1&2 | -2&-1
Cc1ccn(-c2ccc(N3CCN(S(=O)(=O)c4ccc(Oc5ccccc5)cc4)CC3)nn2)n1 | -7 | -11

Brought forward from above: 2 entries; new compounds follow.
SMILES | NPYLR7 ag | NPYLR7 ag max-min
CC(C)(C)C(=O)N1CCOc2ccc(Nc3ccc(C#N)cn3)cc21 | -1&2 | -2&-1
Cc1ccn(-c2ccc(N3CCN(S(=O)(=O)c4ccc(Oc5ccccc5)cc4)CC3)nn2)n1 | -7 | -11
CCc1cc(N2CCN(c3ccccc3F)CC2)nc(SCc2ccc(C(=O)NCCc3ccccn3)cc2)n1 | 17 | 12
CNC(=O)OCc1cccc(COC(=O)NC)n1 | -16 | -30
COc1ccc2cc(C(=O)NCC3(O)CCCNCC3)n(C)c2c1 (stereo not drawn) | 19 | 14
C=C(C)CSc1nnc2c3sc4nc(N5CCOCC5)c5c(c4c3ncn12)CC(C)(C)OC5 | -2 | -4
NC(=O)NC(=O)C(Nc1ccc(N2CCCCC2)cc1)c1ccccc1 (stereo not drawn) | 10 | 6
